Screens: PubChem, National Center for Advancing Translational Sciences (NCATS)
A647 fluor: qHTS Assay for Spectroscopic Profiling in A647 Spectral Region. max dye-equivalent concentration, M. Compound fluorescence, A647 channel (570/671 nm), Tris buffer. AID 592, 2007. 59,000 tested, under 10 active; active means above 1 µM dye equivalent; inconclusive means 0.1 to 1 µM; inactive means 0.1 µM or less;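 note: values scaled relative to a standard on each plate; highest value over a series up to 38 µM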
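Tris 100 mM pH 8.0; cpd + A647 stds pin-transferred; 15 min RT; CCD imager, ex 570/em 671. Output = A647-equivalent conc. per cpd conc.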
Resorufin autofl: qHTS Assay for Spectroscopic Profiling in Resorufin Spectral Region. AID 588, 2007. 59,000 tested, 0.04% active. Compound fluorescence, resorufin region 547/598 nm, buffer; stronger effect = higher value. max dye-equivalent concentration, M; active = above 10 nM dye equivalent; inconclusive = 1 to 10 nM; inactive = 1 nM or less; a few of its hits are not listed in these tables; note: highest value over a series up to 38 µM
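Compounds in 100 mM Tris buffer, pH 8.0, incubated 15 min at room temperature, then read with 547 nm excitation and 598 nm emission filters. Fluorescence was converted to dye-equivalent concentration using an on-plate six-point resorufin standard curve.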
AID923: qHTS Assay for Allosteric/Competitive Inhibitors of Caspase-1: Spectroscopic Profiling in AFC Spectral Region | compound fluorescence, AFC spectral region (405/520 nm); almost no hit is shown here | Potency, µM (top dose mostly 57.5 µM), without a hit: at the top dose fluorescence increase, hits mostly activators | 75,000 tested, 1.1% active; active = well fitted activation curve with a large enough effect; inconclusive = small, poorly fitted or top-dose-only effect;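 note: potency is the fitted concentration of half-maximal effect; 0% is about no effect; scaled to a free AFC standard on each plate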
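Compound autofluorescence profiled at 405 nm ex/520 nm em during kinetic caspase 1 run (50 nM enzyme, 5 uM Ac-WEHD-AFC, HEPES pH 7.5, 10 mM DTT). Titration up to 57 uM; baseline from regression intercept, normalized to AFC standard curve.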
A488 fluor: qHTS Assay for Spectroscopic Profiling in A488 Spectral Region. compound autofluorescence, A488 spectral region, dye equivalency; stronger effect = higher value. max dye equivalency, M. 59,000 tested, 0.1% active; active = above 10 nM dye equivalent; inconclusive = 1 to 10 nM; inactive = 1 nM or less; about half of its hits are not listed in these tables;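 note: highest value over a series up to 38 µM; compound alone in buffer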
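Compounds pin-transferred into 100 mM Tris buffer, pH 8.0, incubated 15 min at room temperature, then imaged with 480 nm excitation/540 nm emission filters. Fluorescence converted to Alexa 488 dye-equivalent concentration via an on-plate six-point A488 standard curve.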
TSHR agonist: qHTS Assay for Agonists of the Thyroid Stimulating Hormone Receptor | Potency, µM (series often up to 57.1 µM), for inactives: at the top dose activation, actives largely listed as activators | AID 926, 2007 | Thyrotropin receptor (Homo sapiens), P16473 | HEK293-CNG-TSHR cells (CNG channel as cAMP sensor), membrane potential dye, cAMP | 73,000 tested, 0.48% active; active = well fitted activation curve of enough size with the parental cells flat; inconclusive = any curve in the parental cells; inactive = parental cells flat and receptor cells flat or falling; note: potency is the fitted concentration of half-maximal effect; % of control where 0% means no effect; weak receptor curves with flat parental cells got no call and are not listed
Target sequence (P16473 whole entry, looked up): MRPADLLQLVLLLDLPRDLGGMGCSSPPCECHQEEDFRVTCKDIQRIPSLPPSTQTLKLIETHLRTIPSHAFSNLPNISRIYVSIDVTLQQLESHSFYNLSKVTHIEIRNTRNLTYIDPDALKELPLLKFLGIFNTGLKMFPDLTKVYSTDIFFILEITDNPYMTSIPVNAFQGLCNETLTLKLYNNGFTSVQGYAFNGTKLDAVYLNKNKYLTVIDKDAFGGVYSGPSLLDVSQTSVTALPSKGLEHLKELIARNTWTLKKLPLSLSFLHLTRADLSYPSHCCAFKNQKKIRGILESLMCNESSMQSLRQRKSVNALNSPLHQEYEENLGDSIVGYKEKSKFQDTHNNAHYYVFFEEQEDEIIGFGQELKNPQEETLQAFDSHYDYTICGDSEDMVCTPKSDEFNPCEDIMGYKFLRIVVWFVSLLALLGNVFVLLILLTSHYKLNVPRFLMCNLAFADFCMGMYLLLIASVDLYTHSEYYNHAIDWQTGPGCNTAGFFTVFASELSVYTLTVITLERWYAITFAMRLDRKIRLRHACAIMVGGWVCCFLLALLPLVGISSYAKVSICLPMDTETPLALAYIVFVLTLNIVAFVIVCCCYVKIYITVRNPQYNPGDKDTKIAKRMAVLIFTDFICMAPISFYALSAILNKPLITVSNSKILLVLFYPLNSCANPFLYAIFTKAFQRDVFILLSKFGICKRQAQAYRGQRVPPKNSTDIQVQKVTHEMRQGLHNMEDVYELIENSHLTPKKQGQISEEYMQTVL
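HEK 293 cells stably expressing TSHR and a cAMP-gated CNG channel; parental CNG-only cells as counterscreen. Cells preloaded 60 min with membrane potential dye plus 100 uM RO 20-1724, then compound 30 min; fluorescence read at 590 nm.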
An asterisk follows results filed as active; i = inactive; u = inconclusive; x = no result given; & = joins results of further samples; [ ] = remark or other dose. A portion of the library (hit frequency here may not be typical).

Start of the data: the first four records, ahead of the listing:
no.	mol	AID923	A488 fluor	TSHR agonist	Resorufin autofl	A647 fluor
1	c1ccc(N=Nc2ccccc2)cc1	-1.7%&1.0%	x	0.9%	x	x
2	O=C(C[C@H](c1ccccc1)c1c(O)c2ccccc2oc1=O)c1ccccc1	2.8%[11.5 µM]	i	2.2%[11.4 µM]	i	1e-09
3	Cc1c(C(=O)N2CCC3(CC2)OCCO3)oc2ccc(S(=O)(=O)N3CCOCC3)cc12	-2.2%	i	6.8%[11.4 µM]	i	1.84e-08
4	O=C(Cl)C(Cl)(Cl)Cl	0.5%	x	0.4%	x	x

The list itself, from the first entry:
no.	mol	AID923	A488 fluor	TSHR agonist	Resorufin autofl	A647 fluor
1	c1ccc(N=Nc2ccccc2)cc1	-1.7%&1.0%	x	0.9%	x	x
2	O=C(C[C@H](c1ccccc1)c1c(O)c2ccccc2oc1=O)c1ccccc1	2.8%[11.5 µM]	i	2.2%[11.4 µM]	i	1e-09
3	Cc1c(C(=O)N2CCC3(CC2)OCCO3)oc2ccc(S(=O)(=O)N3CCOCC3)cc12	-2.2%	i	6.8%[11.4 µM]	i	1.84e-08
4	O=C(Cl)C(Cl)(Cl)Cl	0.5%	x	0.4%	x	x
5	COc1ccc2c(c1OC)C(=O)OC2c1c(O)n(Cc2ccc(F)cc2)c(=O)[nH]c1=O (centres undefined)	0.2%	i	1.6%	i	1.74e-08
6	CCC(=NCCO)c1c(O)n(-c2ccc(Cl)cc2)c(=O)[nH]c1=O	0.5%	i	-0.6%	i	3e-09
7	CCN(CC)CCCN=Cc1c(O)n(-c2ccccc2F)c(=O)[nH]c1=O	0.4%	i	13.0%	i	1e-09
8	C[C@H]1C(=O)O[C@H]2CCN3CC=C(COC(=O)[C@](C)(O)[C@@]1(C)O)[C@H]23	x	i	0.1%	i	5.3e-09
9	CC12CN3CC(C)(CN(C1)P3(=O)Oc1ccccc1)C2=O (centres undefined)	-0.4%	x	4.1%	x	x
10	CCOP(=S)(OCC)Oc1nc(Cl)c(Cl)cc1Cl	2.8%	x	u	x	x
11	CCC1(CC)C(=O)NC(=NCCc2c[nH]c3ccccc23)NC1=O	1.9%	i	3.0%	i	1e-09
12	O=C(c1cccs1)C1CN2CCC1CC2 (centres undefined)	8.9%	x	6.3%	x	x
13	O=C(O)[C@H]1[O][Sb][O][C@@H](C(=O)O)C1O (some centres undefined)	-5.1%[11.5 µM]	i	-3.3%[11.4 µM]	i	1e-09
14	CC12CN3CC(C)(CN(C1)C3c1cccs1)C2 (centres undefined)	-1.6%	i	5.8%	i	8.6e-09
15	CCN1c2nc3c(C)cccn3c(=O)c2CC2(C(=O)N(C)C(=O)N(C)C2=O)C1C (centres undefined)	0.8%	i	0.8%	i	2e-09
16	COc1cc2c3cc1Oc1cc(ccc1O)C[C@@H]1c4c(cc(OC)c(O)c4Oc4cccc(c4)C[C@H]3N(C)CC2)CC[N+]1(C)C	3.6%[25.7 µM]	i	x	i	4.2e-09
17	CCC(=NCCOc1ccc(Cl)cc1)c1c(O)n(C)c(=O)n(C)c1=O	x	i	x	i	1e-09
18	CC[N+]1(C)CCCC(OC(=O)C(O)(c2ccccc2)c2ccccc2)C1 (centres undefined)	2.5%	i	x	i	1e-09
19	CC(=O)Nc1ccc(OC(=O)c2ccccc2N)cc1	-1.2%	x	-11.7%	x	x
20	COc1cc2c(cc1OC)[C@]13CCN4CC5=CCO[C@@H]6CC(=O)N2[C@@H]1[C@H]6[C@@H]5C[C@H]43	x	i	5.3%	i	1.54e-08
21	CCN1C[C@@]2(COC(=O)c3ccccc3N3C(=O)C[C@H](C)C3=O)CC[C@H](OC)[C@@]34[C@@H]5CC6[C@@H](OC)C[C@@](O)([C@H]5[C@H]6OC)C(O)([C@@H]13)[C@@H](OC)[C@H]24	x	i	1.6%	i	1.4e-09
22	CC12CNCC(C)(CNC1)C2O (centres undefined)	-1.4%	x	-15.0%	x	x
23	O=c1c2ccccc2nc(-c2ccco2)n1-c1ccc(Br)cn1	1.2%	i	12.4%	i	1e-09
24	CCCCn1c(O)c(C(CC)=Nc2ccc3c(c2)CCC3)c(=O)[nH]c1=O	2.6%	i	u	i	1e-09
25	Cc1ccc(P(=S)(c2ccc(C)o2)N2CCOCC2)o1	-0.2%	i	24.6%	i	1e-09
26	OC(COCc1ccc(Cl)cc1)CN1CC=C(c2ccccc2)CC1 (centres undefined)	-2.3%	i	u	i	7.5e-09
27	CCOc1ccc(-c2cc(C(=O)N3CCC4(CC3)OCCO4)c3ccccc3n2)cc1	-0.4%	i	-0.5%[11.4 µM]	i	1.99e-08
28	Fc1ccc2c(c1)nnn2C1CCN(Cc2ccccc2)CC1	-1.1%	i	10.0%	i	6e-09
29	N=C1C(c2ccccc2)=C(O)CN1Cc1ccco1	-1.2%	i	0.9%	i	1e-09
30	CC(=O)OC1(Cc2ccccc2)CN2CCC1c1ccccc12 (centres undefined)	x	i	x	i	1.7e-09
31	COc1cc2c(cc1OC)-c1c(OC)c(OC)c(CO)c3c1[C@H](C2)N(C)CC3	x	i	7.1%	i	1e-09
32	COc1ccc(C[C@@H]2C(=O)N[C@H](C)C(=O)N(C)[C@@H]3C(=O)N(C)[C@@H](Cc4ccc(O)c(c4)Oc4ccc(cc4)[C@H]3O)C(=O)N[C@@H](C)C(=O)N[C@H](C)C(=O)N2C)cc1	-2.6%[11.5 µM]	i	-6.0%[11.4 µM]	i	5.8e-09
33	O=C(c1ccc(CNS(=O)(=O)c2ccccc2)cc1)N1CCC2(CC1)OCCO2	0.0%	i	4.6%	i	1.63e-08
34	C[C@H](Br)C(=O)N[C@H](CO)C(=O)O	3.3%[11.5 µM]	i	-0.4%[11.4 µM]	i	9.3e-09
35	Cc1[nH]c2c(Cl)cccc2c1CCN	0.0%	i	15.6%	i	1.46e-08
36	BrCCBr	0.8%	x	u	x	x
37	Clc1ccc(CSC(Cn2ccnc2)c2ccc(Cl)cc2Cl)cc1 (centres undefined)	0.2%	i	x	i	5.7e-08
38	O=C(Oc1ccc2ccc(OC(=O)N3CCOCC3)cc2c1)N1CCOCC1	3.9%	x	u	x	x
39	O=C(c1cccc(N2CCCC2=O)c1)N1CCC2(CC1)OCCO2	-0.8%	i	u	i	3.3e-09
40	O=C(Oc1ccccc1)N1CCC2(CCCN(Cc3nccs3)C2)CC1	6.9%	i	7.8%	i	3.1e-09
41	COc1cccc(N2CCN(Cc3cccc(Cl)c3)CC2)c1	1.2%	x	25.1µM*	x	x
42	C=CCOC(=O)COc1cc(C)cc2oc(=O)c3c(c12)CCC3	-1.6%	x	u	x	x
43	CC(C)CN1CC[C@@]2(CCCN(C(=O)Oc3ccccc3)C2)C1	0.7%	i	17.2%	i	1.23e-08
44	CC1N(P(=O)(c2ccccc2)c2ccccc2)CC(O)(c2ccccc2)CC12CC2 (centres undefined)	-2.1%	x	u	x	x
45	CCCN(CCC)CCc1c[nH]c2ccc(C(N)=O)cc12	-2.4%	i	5.5%	i	1.24e-08
46	Cc1cccn2c(=O)c3c(nc12)N1CCC(Cc2ccccc2)CC1C1(C3)C(=O)N(C)C(=O)N(C)C1=O (centres undefined)	-0.3%	i	u	u	6.2e-09
47	c1ccc(C2=NP(N3CCOCC3)(N3CCOCC3)=NC(N3CCOCC3)=N2)cc1	2.9%	i	0.5%	i	1.18e-08
48	CCN(CC)CCN=C(C)c1c(O)n(-c2ccccc2OC)c(=O)[nH]c1=O	x	i	x	i	1.66e-08
49	Cc1cc(C(=O)N2CCC3(CC2)OCCO3)cs1	0.7%	i	1.8%	i	2.96e-08
50	CC(C)C[C@H](NP(=O)(O)O[C@@H]1O[C@@H](C)[C@@H](O)[C@@H](O)[C@H]1O)C(=O)N[C@@H](Cc1c[nH]c2ccccc12)C(=O)O	0.4%	i	2.4%	i	1e-09
51	Cc1ccccc1-c1nc(CS(=O)CC(=O)N2CCC3(CC2)OCCO3)c(C)o1 (centres undefined)	0.7%	i	7.2%	i	6.9e-09
52	O=S(=O)(NCCO)c1cc[c]([Sb](=[O])([OH])[OH])cc1	-0.7%[11.5 µM]	i	4.7%[11.4 µM]	i	6.6e-09
53	CN=C=O	12.1%	x	u	x	x
54	O.O.[NH-]C1(C(=O)O)CCCC1.[NH-]C1(C(=O)O)CCCC1.[Ni+2]	-1.5%[11.5 µM]	i	-0.8%[11.4 µM]	i	1e-09
55	COc1ccc(N=C(C)c2c(O)n(C)c(=O)n(C)c2=O)c(OC)c1	0.2%	i	11.5%	i	2.02e-08
56	NC(=O)CN1CC(c2ccccc2)CC1=O (centres undefined)	7.9%	x	1.0%	x	x
57	ClC(Br)Br	1.2%	x	-10.0%	x	x
58	CC(=O)C1C2c3ccccc3OC1(C)N=c1s/c(=C/c3cnn(C)c3)c(=O)n12 (centres undefined)	1.2%	i	7.1%	i	1e-09
59	CCc1nc(N2CCNCC2)c(C#N)c2c1CSC(C)(C)C2	x	i	x	i	1e-09
60	C[N+]1(C)[C@@H]2CC[C@H]1CC(OC(=O)[C@@H](CO)c1ccccc1)C2 (some centres undefined)	-1.4%[25.7 µM]	i	-14.4%[25.6 µM]	i	4.26e-08&1e-09&4.94e-08

The list goes on.
no.	mol	AID923	A488 fluor	TSHR agonist	Resorufin autofl	A647 fluor
61	COc1cc(N)c(Cl)cc1C(=O)N[C@@H]1CN2CCC1CC2	3.2%	x	-1.2%	x	x
62	CCCCCCCCCCCCCl	1.9%	x	u	x	x
63	Cc1ccc(S(=O)(=O)Nc2cc(C(=O)N3CCC4(CC3)OCCO4)ccc2N2CCCCC2)cc1	-1.0%	i	-0.3%	i	1e-09
64	CN1CCC2(CC1)CCN(C(=O)c1ccco1)CC2	-0.1%	i	5.7%	i	1e-09
65	N#CS.N=C=S.N=C=S.[Cu].[NH2-].[NH2-].[NH2-].[NH2-].c1ccc2ncccc2c1	-3.1%[11.5 µM]	i	u	i	6.39e-08
66	COc1ccc(CCn2c(O)c(C=NCc3ccc4c(c3)OCO4)c(=O)[nH]c2=O)cc1OC	0.1%	i	u	i	2.15e-08
67	C=CCN1CC[C@]23c4c5ccc(O)c4O[C@@H]2C(=O)CC[C@]3(O)[C@H]1C5	0.7%	i	9.6%	i	1.4e-09
68	Nc1c(C(=O)NCc2ccco2)c2nc3ccccc3nc2n1Cc1ccc(F)cc1	x	i	x	i	1e-09
69	NC[C@H](CC(=O)O)c1ccc(Cl)cc1	-0.5%	x	-2.6%	x	x
70	COC(=O)c1c(C)oc2ccc(OC(=O)N3CCOCC3)cc12	0.5%	i	25.1µM*	i	3.71e-08
71	ClCCOCOCCCl	0.9%	x	-1.5%	x	x
72	COc1ccc(C(=O)CN2CCOCC2)cc1F	x	i	x	i	6.6e-08

Single records, as listed above.
Listed for COc1ccc(C(=O)CN2CCOCC2)cc1F → AID923: x; A488 fluor: i; TSHR agonist: x; Resorufin autofl: i; A647 fluor: 6.6e-08
Listed for CCCCCCCCCCCCCl → AID923: 1.9%; A488 fluor: x; TSHR agonist: u; Resorufin autofl: x; A647 fluor: x

Further compounds follow.
no.	mol	AID923	A488 fluor	TSHR agonist	Resorufin autofl	A647 fluor
73	CC1CCN2c3nc4ccccn4c(=O)c3CC3(C(=O)N(C)C(=O)N(C)C3=O)C2C1 (centres undefined)	0.5%	i	11.3%	i	3e-09
74	Cc1cccnc1-n1c(-c2ccco2)nc2ccccc2c1=O	1.4%	x	-1.3%	x	x
75	CN(C)C(=O)Oc1cc(OC(=O)N(C)C)cc([C@@H](O)CNC(C)(C)C)c1	0.2%[25.7 µM]	i	0.1%[25.6 µM]	i	6e-09
76	ClCC(Br)CBr (centres undefined)	-0.3%	x	3.6%	x	x
77	NNC(N)=O	0.4%&-1.1%	i	u	i	7.1e-09
